# Bfl-1 A1 inh = caspase 3/7 activation in MEF A1-2A-BIM cells, primary screen, A1 inhibitor project, cell-based, luminescence, HTS | caspase activation, % (test concentration not listed) | Caspase-Glo 3/7 luminescence, 3 h; percent of clofoctol response, vehicle zero | actives 0.066% (n = 330,000);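 active = over half of replicate activation scores above 10%, or exactly half above 10 with the replicate mean above 10; inconclusive = replicate mean below 10 yet half the replicates above 10; inactive = over half of replicates below 10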;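 also: wells of about 30 µL received 50 nL stock; many hits fall short of the cut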
# Beta cell apopt = inhibitors of cytokine-induced beta cell apoptosis, primary screen, luminescence; protection from apoptosis, % (concentration not given with the values); AID 435005, 2010; actives 0.8% (n = 300,000); INS-1E cytokine-induced death, ATP luminescence, 48 h; percent of positive-control rescue, neutral wells zero;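 active = all replicates at 75% or more, or half of them and the mean; inconclusive = half reach 75% but not the mean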;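 also: 0% = cytokine-treated negative control wells and 100% = positive control rescue; higher means more ATP so stronger rescue from cytokine killing; wells of about 40 µL received 100 nL stock; the first replicate is given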
# AF4-AF9 inh = inhibitors of AF4 peptide binding to AF9, primary screen, biochemical, AlphaScreen, biotin-AF4 peptide, FLAG-AF9, single point | Protein AF-9 (Homo sapiens), P42568 | inhibition, % at 10 µM | actives 0.47% (n = 350,000);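 active = every replicate reaching a set inhibition limit, whatever the replicate mean, cut at about 25% in these data; inconclusive = mean inhibition reaches that limit but some replicates miss it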;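 also: 0% = plate neutral control median and 100% = total signal loss; the record names both 10 and 1 µM as test concentration; the first replicate is given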
# Target sequence (P42568 whole entry, looked up): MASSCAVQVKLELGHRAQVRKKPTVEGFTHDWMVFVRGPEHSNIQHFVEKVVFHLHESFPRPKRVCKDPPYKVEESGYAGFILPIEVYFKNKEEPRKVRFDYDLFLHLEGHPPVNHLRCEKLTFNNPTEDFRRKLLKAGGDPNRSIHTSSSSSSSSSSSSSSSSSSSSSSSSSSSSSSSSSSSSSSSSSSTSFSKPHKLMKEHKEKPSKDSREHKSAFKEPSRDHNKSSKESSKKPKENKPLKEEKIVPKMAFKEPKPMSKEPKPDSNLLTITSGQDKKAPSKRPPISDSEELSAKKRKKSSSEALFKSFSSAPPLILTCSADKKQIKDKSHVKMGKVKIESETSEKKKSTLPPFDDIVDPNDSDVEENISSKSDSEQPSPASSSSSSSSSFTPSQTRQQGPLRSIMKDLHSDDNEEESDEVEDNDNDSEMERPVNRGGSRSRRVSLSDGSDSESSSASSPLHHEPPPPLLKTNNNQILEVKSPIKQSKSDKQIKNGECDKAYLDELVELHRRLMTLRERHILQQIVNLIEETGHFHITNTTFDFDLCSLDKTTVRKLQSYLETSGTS
# T cruzi repl = inhibitors of intracellular T. cruzi growth, primary screen, luminescence, NIH3T3 host cells | inhibition, % (test concentration not listed) | T. cruzi beta-gal in NIH3T3, 90 h | actives 1.4% (n = 300,000);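 active = mean inhibition across valid replicates above about 55%, limit read from the data; inconclusive = mean below that limit but half or more replicates reach it; inactive = mean below it, under half of replicates reach it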;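 also: signal also drops with host cell toxicity which is not excluded here; 0% = plate median of DMSO wells and 100% = zero luminescence signal; higher percent means less beta-gal luminescence so fewer parasites; stock transfer was 50 nL into about 50 µL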
# Vif A3G = inhibitors of Vif binding to APOBEC3G peptide, primary screen, biochemical, TR-FRET, GST-Vif 1-94, biotin-A3G peptide, dose response retest (AID 1117319); actives 0.57% (n = 260,000); TR-FRET GST-Vif / biotin-A3G peptide binding; higher % means a stronger effect; test concentration not given here; strong numbers were not always called active; inhibition, %, or IC50 in µM where a hit was titrated; Virion infectivity factor (Human immunodeficiency virus type 1 group M subtype B (isolate …;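 active = above the screen mean plus three standard deviations and confirmed in dose response; inconclusive = results disagree or hit not tested in dose response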;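 also: Vif residues 1-94 fused to GST binding biotinylated APOBEC3G peptide 110-148; 0% = full assay without inhibitor and 100% = GST in place of GST-Vif; retest series ran down from 100 µM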
# rRNA inh HTS = reduced GFP signal of wild-type E. coli, primary screen, bacterial rRNA inhibitor project, GFP/RFP fluorescence, OD600, single point. E. coli WT GFP vs humanized-ribosome RFP mutants, 24 h; stronger effect = lower value; DMSO median 0, no signal -100. GFP signal change (wild-type ribosome), % (concentration not given with the values). actives 1.6% (n = 350,000). AID 720706, 2013;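 active = significant combined selectivity score with lowered wild-type GFP, culture density cut under 30%, mutant RFP and density less affected; inactive = any of these conditions unmet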; also: one replicate is shown; some compounds called inactive have numbers as strong as hits
# RanGTP-Imp inh = inhibitors of RanGTP-importin-beta interaction, primary screen, biochemical, FRET, CFP-Ran, YFP-importin-beta, homogeneous; actives 1.1% (n = 300,000); cell-free CFP-Ran/YFP-importin-beta FRET ratio; inhibition, % (test concentration not listed);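 active = most replicates above 15%; inconclusive = exactly half above 15%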;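 also: 0% = DMSO wells and 100% = Ran loaded with GDP instead of GTP; wells of about 40 µL received 100 nL stock; the first replicate is given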
# Calb FLC = C. albicans growth inhibition with fluconazole, primary screen, CaCi-2 strain, Alamar Blue fluorescence. C. albicans CaCi-2 (fluconazole-resistant clinical isolate) + fluconazole, 48 h. growth inhibition, % (no concentration beside the values). actives 0.57% (n = 300,000). AID 1979, 2009;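 active = most replicates above 75%; inconclusive = exactly half above 75%; inactive = most below 75%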;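 also: all wells also contain fluconazole at 8 µg/ml as a sub-toxic cotreatment; 0% = median of DMSO wells and 100% = median of geldanamycin control wells; wells of about 8 µL received 7.5 nL stock; the first replicate is given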
# rRNA inh HTS OD600 = recorded beside rRNA inh HTS, whose call it bears; OD600 change, %; measured here: OD600 growth;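 optical density of the mix in the first replicate; 0 = DMSO median and -100 = no signal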
# rRNA inh HTS RFP = further read-out of rRNA inh HTS, marked with its call; RFP signal change, %; measured here: RFP humanized mutant strains;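 first replicate; 0 = DMSO median and -100 = no signal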
# * marks the source's active call; other numbers are inactive results; u = inconclusive; x = no result given. Some of the compounds tested; the hit share may differ from the screen's.
entry | canonical_smiles | Bfl-1 A1 inh | Beta cell apopt | AF4-AF9 inh | T cruzi repl | Vif A3G
1 | CC1Cc2cc(/C(O)=C3/C(=O)C(=O)N(CC4CCCO4)C3c3ccco3)ccc2O1 (stereo unspecified) | -0.9 | -4 | x | -4 | 16%
2 | Cc1cccc(NS(=O)(=O)c2cnc[nH]2)c1 | -0.3 | -2 | x | -17 | -2%
3 | COc1cccc(C(=O)/C=C/Nc2cc(C)ccc2O)c1 | -1.4 | 3 | x | -21 | 14%
4 | Cc1cc(C)n(C(C)CC(=O)Nc2ccc3c(c2)OCO3)n1 (stereo unspecified) | -0.4 | x | 4.0 | -5 | -2%
5 | O=C(COC(=O)c1cncc(Br)c1)NCc1ccccc1 | 0.3 | -5 | -0.7 | 3 | -5%
6 | COc1ccc(N2C(=O)CC(N3CCN(c4ccccc4)CC3)C2=O)cc1 (stereo unspecified) | 0.7 | -4 | -8.6 | 0 | x
7 | Nc1nc(SCC(=O)Nc2cccc(S(=O)(=O)N3CCCCCC3)c2)n[nH]1 | 0.4 | -5 | -1.3 | -36 | 2%
8 | O=C(NC(=S)Nc1ccccc1N1CCOCC1)c1ccccc1F | -0.6 | -2 | 4.9 | -1 | x
9 | CC(C)c1ccccc1N=C1SCCN1C1CCS(=O)(=O)C1 (stereo unspecified) | 0.1 | -1 | x | 3 | 4%
10 | O=[N+]([O-])c1cc(S(=O)(=O)Nc2ccccc2)ccc1NCc1ccccc1 | 0.2 | x | 7.1 | 22 | 1%

entry | rRNA inh HTS | rRNA inh HTS OD600 | rRNA inh HTS RFP | RanGTP-Imp inh | Calb FLC
1 | x | x | x | 3.1 | -3
2 | x | x | x | 5.1 | -2
3 | x | x | x | 30* | -2
4 | 6 | 15 | -1.2 | 2.2 | -7
5 | 17 | 19 | -4.3 | 5.4 | -16
6 | 6 | -4 | 0.3 | -4.4 | 0
7 | -2 | 7 | -3.6 | u | 9
8 | -34* | -23* | -2.8* | 1.6 | 2
9 | x | x | x | 5.3 | -2
10 | -10 | -13 | -4.6 | -3.4 | 24

# Next compounds follow:
entry | canonical_smiles | Bfl-1 A1 inh | Beta cell apopt | AF4-AF9 inh | T cruzi repl | Vif A3G
11 | Cc1c(C(=O)Nc2cnccn2)oc2ccccc12 | -3.5 | 2 | 3.1 | -4 | 1%
12 | CCOc1ccc2c(c1)C(NC(C)=O)C(=O)N2CCN1CCOCC1 (stereo unspecified) | 0.2 | -2 | 25* | -5 | 1%
13 | Cc1cc(NC(=O)c2cc3ccccc3o2)ccc1NC(=O)c1ccccc1 | -1.8 | 0 | -0.2 | -2 | x
14 | Cc1ccsc1C(=O)N1CCCC(C(=O)c2cc(F)ccc2F)C1 (stereo unspecified) | -0.5 | 4 | -4.4 | 9 | -6%
15 | CCN(C1CCS(=O)(=O)C1)S(=O)(=O)c1ccc2ccccc2c1 (stereo unspecified) | -0.1 | x | -0.1 | -8 | -7%
16 | COc1ccccc1C(=O)NCCc1nc2ccccc2[nH]1 | 0.1 | -10 | x | -3 | 0%
17 | Cc1cc(C)cc(SCc2noc(C(=O)NCC3CCCO3)c2C(=O)O)c1 (stereo unspecified) | 0.6 | -20 | -4.9 | -13 | 4%
18 | CCOC(=O)C1=CC[C@H]2c3c(c4ccc(OC)cc4n3C)C(=O)C1N2S(=O)(=O)c1ccc(C)cc1 | 0.8 | -2 | -1.8 | x | x
19 | COc1ccc(CCNCC(O)COc2c(C)cccc2C)cc1OC (stereo unspecified) | -0.1 | 0 | 2.9 | 17 | -2%
20 | COc1ccc(Cl)cc1NC(=O)COC(=O)CNC(=O)C1CCCCC1 | 0.1 | -8 | -17 | x | -9%

entry | rRNA inh HTS | rRNA inh HTS OD600 | rRNA inh HTS RFP | RanGTP-Imp inh | Calb FLC
11 | 12 | 4 | -6.8 | 6.3 | 26
12 | 11 | 14 | -1.6 | -0.9 | 7
13 | 6 | 9 | 1.3 | 1.3 | 13
14 | -16* | -1.6* | 3.6* | 4.4 | 7
15 | -4 | -20 | 3.1 | 0.6 | 2
16 | x | x | x | -0.8 | 5
17 | -21 | -24 | -11 | 3.8 | 9
18 | -2 | -2 | -7.8 | x | x
19 | 10 | 11 | -0.4 | -1.7 | -7
20 | 7 | 6 | -0.3 | x | x

# New compounds follow:
entry | canonical_smiles | Bfl-1 A1 inh | Beta cell apopt | AF4-AF9 inh | T cruzi repl | Vif A3G
21 | O=C(NCCc1ccccc1Cl)C1CC(=O)N(C2CCCCC2)C1 (stereo unspecified) | -0.1 | -1 | -4.8 | -1 | x
22 | COc1ccc(C2C(C(=O)c3cccs3)=C(O)C(=O)N2c2nnc(C)s2)cc1OC (stereo unspecified) | 0.6 | 2 | x | 11 | 29%
23 | COc1cc(NC(=O)Nc2ccc3c(c2)OCO3)cc(OC)c1OC | 0.7 | -3 | 0.3 | 6 | -1%
24 | Cc1nnc(SCC(=O)N2CCOCC2)c2ccccc12 | -1.2 | 3 | x | 10 | 10%
25 | O=C(CC(C(=O)O)c1ccccc1)Nc1cccc2ccccc12 (stereo unspecified) | 0.7 | -12 | x | -10 | 1%
26 | CCCCOc1ccc(/C=C/C(=O)N(CC)CC(=O)Nc2ccc3c(c2)OCCO3)cc1OC | -0.9 | -2 | 4.5 | -2 | 5%
27 | CC(/C=N/n1c(-c2ccco2)n[nH]c1=S)=C\c1ccco1 | 0.3 | -4 | x | -16 | x
28 | Cc1cccc(C(c2c(C)nn(-c3ccccc3)c2N)c2c(C)nn(-c3ccccc3)c2N)c1 | -0.7 | -1 | x | 10 | x
29 | CN(C)c1cccc(C(=O)NNC(=O)CSc2ccccc2)c1 | -0.1 | -12 | -1.3 | -4 | x
30 | Cc1cc(C)nc(NC(C)(C)C(=O)O)n1 | -0.7 | -5 | 0.0 | -12 | x

entry | rRNA inh HTS | rRNA inh HTS OD600 | rRNA inh HTS RFP | RanGTP-Imp inh | Calb FLC
21 | -5 | -2 | -4.4 | -1.3 | 3
22 | x | x | x | -11 | -6
23 | 9 | 11 | 0.7 | 3.3 | 4
24 | x | x | x | -28 | 6
25 | x | x | x | -3.4 | -8
26 | 5 | -1 | 0.7 | 5.0 | 0
27 | x | x | x | 0.4 | 9
28 | x | x | x | 0.1 | 2
29 | 0 | 9 | -3.4 | 0.7 | -1
30 | 2 | 5 | 1.6 | 1.3 | 17

# Other results:
entry | canonical_smiles | Bfl-1 A1 inh | Beta cell apopt | AF4-AF9 inh | T cruzi repl | Vif A3G
31 | C=CCOc1ccccc1/C=N/n1nnnc1N | -0.3 | -2 | -2.6 | -5 | 5%
32 | Fc1ccc(COc2ccccc2-c2ccnc3ncnn23)cc1 | 0.3 | -10 | -2.4 | -12 | -10%
33 | COc1cc(C2CC(=O)Nc3ccccc3S2)cc(OC)c1OC (stereo unspecified) | 1.0 | 7 | x | -23 | 5%
34 | CC(C)Cn1c(CCCNC(=O)c2ccco2)nc2ccccc21 | 2.4 | 7 | -8.7 | -2 | 5%
35 | O=C(CC(c1ccccc1)c1ccccc1)NCCO | -0.5 | -5 | x | -6 | 0%
36 | COc1ccc(C(=O)Nc2c3c(nn2-c2ccc([N+](=O)[O-])cc2)CS(=O)(=O)C3)cc1 | 0.8 | x | 0.4 | -6 | x
37 | O=C(CSc1ccc2c(c1)OCCO2)Nc1cccc(S(=O)(=O)N2CCCCC2)c1 | -0.3 | 9 | x | -1 | x
38 | C/C(CC(=O)Nc1cc(Cl)ccc1Cl)=N\NC(=O)c1ccccc1Br | 0.6 | 0 | -1.6 | -18 | x
39 | O=C(Nc1ccc(-c2noc(COc3ccccc3Cl)n2)cc1)c1ccco1 | -1.7 | x | x | 11 | x
40 | O=C(Nc1ccccc1C(=O)NCC1CCCO1)c1ccccc1F (stereo unspecified) | 0.0 | 3 | -0.7 | 11 | x

entry | rRNA inh HTS | rRNA inh HTS OD600 | rRNA inh HTS RFP | RanGTP-Imp inh | Calb FLC
31 | -2 | 1 | 2.4 | 0.8 | -3
32 | -11 | -14 | -8.9 | 6.6 | -6
33 | -6 | -4 | -0.8 | 1.3 | 17
34 | 0 | 3 | 1.5 | 0.2 | -10
35 | x | x | x | 1.5 | -4
36 | 13 | 24 | 4.2 | -0.4 | 6
37 | x | x | x | 1.0 | -7
38 | 1 | 2 | 0.3 | -1.7 | -2
39 | x | x | x | 6.8 | 1
40 | 2 | 2 | 1.4 | 1.1 | -1

# Later entries
entry | canonical_smiles | Bfl-1 A1 inh | Beta cell apopt | AF4-AF9 inh | T cruzi repl | Vif A3G
41 | Cc1nnc2sc(SCC(=O)Nc3nccs3)nn2c1=O | -3.7 | 6 | x | 1 | x
42 | Cc1cc(OCCCN2CCN(Cc3ccccc3)CC2)ccc1[N+](=O)[O-] | 1.3 | 3 | 18 | 56* | 18%
43 | O=C1CCCC2=C1C(c1cccs1)n1nc(SCc3ccccc3)nc1N2 (stereo unspecified) | 0.0 | 3 | x | 13 | 3%
44 | CC(=O)c1ccc(S(=O)(=O)NCCc2cn3ccc(C)cc3n2)cc1 | -0.7 | -6 | 0.0 | -19 | x
45 | CC(=O)CSc1ccc(-c2nc3cc(C)c(C)cc3[nH]2)cn1 | -16 | 6 | -3.0 | 14 | -5%
46 | CCc1ccc(C(C)NC(=O)COC(=O)c2ccc(-n3cnnn3)cc2)cc1 (stereo unspecified) | -0.5 | -1 | -6.0 | x | x
47 | COc1ccc(/C=C/C(=O)NCCc2nc3ccccc3[nH]2)cc1 | 0.7 | 3 | -2.6 | 6 | x
48 | CCOc1ccc(CN(C)C(=O)CNC(=O)c2sc3ccccc3c2Cl)cc1 | -0.4 | 1 | -2.2 | x | -61%
49 | COc1cc2c(=O)c(-c3ccc(O)cc3)coc2cc1OC1OC(CO)C(O)C(O)C1O (stereo unspecified) | -0.1 | -1 | -53 | -8 | 32%
50 | Nc1ccc(Cc2nc3c(ccc4ccccc43)[nH]2)cc1 | -0.2 | 5 | 11 | -15 | 22%

entry | rRNA inh HTS | rRNA inh HTS OD600 | rRNA inh HTS RFP | RanGTP-Imp inh | Calb FLC
41 | x | x | x | -4.2 | -10
42 | -13 | -13 | -6.0 | -3.2 | 7
43 | x | x | x | -1.0 | 3
44 | 9 | 17 | 0.8 | 0.2 | 7
45 | -27 | -8 | -6.4 | 0.9 | 23
46 | 7 | 11 | -0.4 | x | x
47 | -26* | -10* | 1.7* | -1.3 | -5
48 | x | x | x | x | x
49 | 8 | 16 | 0.4 | 1.4 | -8
50 | x | x | x | 3.1 | -3

# High-throughput results deposited in PubChem BioAssay by several laboratories.
